FGF22 binding: binders of human FGF22 protein, primary screen, FGF22 synaptogenesis inhibitor project, biophysical, thermal shift, single point | recombinant FGF22 thermal shift, SYPRO orange fluorescence; percent of sucrose octasulfate shift, DMSO zero | AID 651658, 2012 | 340,000 compounds, 1.5% hits | calls only at 9.99 µM;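 active = melting point raised past a set limit in the mean and every replicate; three in four hits are not shown here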
Target sequence (Q9HCT0 whole entry, looked up): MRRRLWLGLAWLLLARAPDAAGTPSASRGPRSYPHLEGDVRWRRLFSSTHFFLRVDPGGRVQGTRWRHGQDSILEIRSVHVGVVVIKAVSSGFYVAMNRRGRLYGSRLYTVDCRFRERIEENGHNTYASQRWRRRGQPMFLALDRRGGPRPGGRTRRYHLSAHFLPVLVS
rRNA inh HTS: reduced GFP signal of wild-type E. coli, primary screen, bacterial rRNA inhibitor project, GFP/RFP fluorescence, OD600, single point; E. coli WT GFP vs humanized-ribosome RFP mutants, 24 h; stronger effect = lower value; DMSO median 0, no signal -100; AID 720706, 2013; 350,000 compounds, 1.6% hits; GFP signal change (wild-type ribosome), % (test concentration not listed);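 active = significant combined selectivity score with lowered wild-type GFP, culture density cut under 30%, mutant RFP and density less affected; inactive = any of these conditions unmet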; note: one replicate is shown; some compounds called inactive have numbers as strong as hits
MLL AF4-AF9 inh: inhibitors of AF4 peptide binding to AF9, primary screen, biochemical, AlphaScreen, biotin-AF4 peptide, FLAG-AF9, single point; AID 651704, 2012; inhibition, % at 10 µM; 350,000 compounds, 0.47% hits;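 active = every replicate reaching a set inhibition limit, whatever the replicate mean, cut at about 25% in these data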;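 note: 0% = plate neutral control median and 100% = total signal loss; the record names both 10 and 1 µM as test concentration; the first replicate is given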
Target sequence (P42568 whole entry, looked up): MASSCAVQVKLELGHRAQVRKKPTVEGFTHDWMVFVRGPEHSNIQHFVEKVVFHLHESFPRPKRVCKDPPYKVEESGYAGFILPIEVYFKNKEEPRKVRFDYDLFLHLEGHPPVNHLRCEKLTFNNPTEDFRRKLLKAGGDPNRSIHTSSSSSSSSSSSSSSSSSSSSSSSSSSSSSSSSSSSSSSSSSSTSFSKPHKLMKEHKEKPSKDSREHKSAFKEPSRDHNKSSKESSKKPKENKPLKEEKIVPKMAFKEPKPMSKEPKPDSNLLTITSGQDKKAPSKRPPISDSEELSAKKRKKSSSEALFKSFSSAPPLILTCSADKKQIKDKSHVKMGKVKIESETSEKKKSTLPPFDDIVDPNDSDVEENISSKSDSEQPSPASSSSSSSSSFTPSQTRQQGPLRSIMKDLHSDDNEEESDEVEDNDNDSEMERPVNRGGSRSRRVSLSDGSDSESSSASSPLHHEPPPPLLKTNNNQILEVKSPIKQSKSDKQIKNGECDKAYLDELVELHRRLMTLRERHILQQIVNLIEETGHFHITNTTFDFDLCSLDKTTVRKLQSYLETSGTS
rRNA inh HTS OD600: recorded beside rRNA inh HTS, whose call it bears; OD600 change, %; measured here: OD600 growth;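 optical density of the mix in the first replicate; 0 = DMSO median and -100 = no signal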
rRNA inh HTS RFP: also measured in rRNA inh HTS; calls as there; RFP signal change, %; measured here: RFP humanized mutant strains;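 first replicate; 0 = DMSO median and -100 = no signal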
Active calls of the source: *; i = inactive; + = active, no number. A portion of the library; the hit share may differ from the screen's.

Fields: MLL AF4-AF9 inh | rRNA inh HTS OD600 | rRNA inh HTS RFP | rRNA inh HTS | FGF22 binding
> CC(C)Oc1cc(F)ccc1-c1cc(C(=O)NCc2cccs2)[nH]n1
→ -4.1 | -34.0 | -4.1 | -22.3 | i
> COCC(=O)N[C@H]1CC[C@@H](CC(=O)NCc2ccc(Cl)cc2)O[C@@H]1CO
→ 0.8 | -3.0 | 0.2 | 0.4 | i
> CCC(=O)N(C)C[C@H]1Oc2cc(/C=C/c3ccccc3)ccc2S(=O)(=O)N([C@H](C)CO)C[C@H]1C
→ 10.4 | -60.7 | 15.2 | -26.9 | i
> CCC(=O)N(CC)C[C@H]1[C@H](c2ccc(-c3ccccc3)cc2)[C@@H](CO)N1C(C)=O
→ 0.6 | -3.7 | 3.3 | -1.8 | i
> C[C@@H]1CN([C@@H](C)CO)C(=O)c2cc(NS(=O)(=O)c3cn(C)cn3)ccc2O[C@@H]1CN(C)Cc1ccc(C(=O)Nc2ccccc2N)cc1
→ 0.8 | 6.3 | 3.2 | 5.8 | i
> C[C@@H]1CN([C@@H](C)CO)C(=O)c2cc(C#Cc3cccnc3)cnc2O[C@H]1CN(C)Cc1ccc(F)cc1
→ 1.0 | 8.2 | 1.0 | 4.0 | i
> CCOC(=O)C1(C)CCN1C(=O)c1ccccc1C (centres undefined)
→ -2.6 | 6.7 | 1.2 | 6.0 | i
> CC(C)NC(=O)c1csc(COCCO)n1
→ 2.1 | 14.2 | 0.6 | 8.6 | i
> C[C@H](CO)N1C[C@H](C)[C@@H](CN(C)Cc2ccc(C(=O)O)cc2)OCCCC[C@H](C)Oc2ccc(NC(=O)Nc3cccc4ccccc34)cc2C1=O
→ -0.1 | 0.1 | 3.3 | -3.2 | i
> C[C@H]1CN([C@@H](C)CO)C(=O)Cc2cc(NC(=O)Nc3ccc(C(F)(F)F)cc3)ccc2O[C@@H]1CN(C)S(=O)(=O)c1ccc(Cl)cc1
→ 0.2 | 9.2 | 1.9 | -1.3 | i
> COC(=O)[C@@H](Cc1c[nH]c2ccccc12)NCc1ccc(B(O)O)cc1
→ 1.3 | -11.2 | -1.4 | -11.8 | i
> C[C@H](CO)N1C[C@H](C)[C@@H](CN(C)C(=O)C2CCC2)Oc2ncc(C3=CCCC3)cc2C1=O
→ -3.3 | -0.1 | -1.3 | -1.6 | i
> Cc1noc(C)c1NC(=O)N(C)C[C@@H]1Oc2ncc(C#CC3CCCCC3)cc2C(=O)N([C@@H](C)CO)C[C@@H]1C
→ 0.8 | -1.0 | 0.0 | -2.3 | i
> C[C@H]1CCCCO[C@@H](CN(C)C)[C@@H](C)CN([C@@H](C)CO)C(=O)c2cc(NC(=O)CCC(F)(F)F)ccc2O1
→ -8.7 | 11.7 | -1.4 | 6.2 | i
> COc1ccc(NC(=O)C2(C)Cc3c(-c4ccccc4)ccnc3O2)cn1 (centres undefined)
→ 0.8 | -13.1 | -1.7 | -8.0 | i
> Cc1cccc(S(=O)(=O)NC(=O)C2(C)CCN2C(=O)Cc2ccccc2)c1 (centres undefined)
→ -5.8 | 18.4 | 1.4 | 15.6 | i
> C[C@H]1CN([C@@H](C)CO)C(=O)c2cc(NC(=O)Cc3cn(C)c4ccccc34)ccc2O[C@@H]1CN(C)C(=O)Nc1ccc(F)cc1
→ 0.9 | 1.6 | -2.7 | -0.2 | i
> CC(C)NC(=O)Nc1ccc2c(c1)CC(=O)N([C@H](C)CO)C[C@H](C)[C@H](CN(C)S(=O)(=O)c1ccc(Cl)cc1)O2
→ 0.0 | -11.0 | 0.2 | -3.1 | i
> C[C@@H]1CN([C@@H](C)CO)S(=O)(=O)c2ccc(C#CC3CC3)cc2O[C@H]1CN(C)C(=O)c1ccncc1
→ -15.3 | -21.1 | -0.8 | -12.6 | i
> Cc1noc(C)c1NC(=O)N[C@@H]1C=C[C@H](CC(=O)Nc2ccc(-c3ccccc3)cc2)O[C@H]1CO
→ -2.7 | -1.0 | -0.7 | -1.3 | i
> CC(C)(C)c1ccc(C(=O)N2CCC2(C)C(=O)Nc2cnc3ccccc3c2)cc1 (centres undefined)
→ -1.9 | -12.3 | -2.0 | -9.4 | i
> O=C(C[C@H]1C=C[C@@H](NC(=O)Cc2cccnc2)[C@@H](CO)O1)Nc1ccc(-c2ccccc2)cc1
→ 2.5 | -17.5 | -0.7 | -5.0 | i
> C[C@@H]1CN([C@@H](C)CO)C(=O)c2cc(NC(=O)NC3CCCCC3)ccc2O[C@@H](C)CCCCO[C@@H]1CN(C)S(=O)(=O)c1ccc(F)cc1
→ -0.5 | 3.4 | -0.9 | 0.5 | i
> Cc1ccc(OCC(=O)Nc2cccc(S(=O)(=O)N3CCCC3)c2)cc1C
→ -1.2 | -6.5 | 6.3 | -0.1 | i
> Cc1ccc(S(=O)(=O)N(C)C[C@@H]2Oc3ccc(NC(=O)Nc4ccc(C(F)(F)F)cc4)cc3CC(=O)N([C@H](C)CO)C[C@H]2C)cc1
→ -4.3 | -0.5 | 0.7 | -1.6 | i
> COc1ccc(NC(=O)Nc2ccc3c(c2)C(=O)N([C@H](C)CO)C[C@@H](C)[C@H](CN(C)C(=O)NC2CCCCC2)OCCCC[C@@H](C)O3)cc1
→ 3.3 | 3.7 | 0.5 | 0.8 | i
> COc1ccc(S(=O)(=O)N2CCCCC2c2cc(C(=O)Nc3ccccc3Cl)no2)cc1 (centres undefined)
→ 0.9 | 1.5 | 3.1 | -0.6 | i
> CN(C)CC(=O)N1[C@H](CO)[C@@H](c2ccc(-c3cccc(C(=O)N(C)C)c3)cc2)[C@@H]1C#N
→ -1.4 | -2.6 | 2.5 | 4.1 | i
> COCC(C)n1c(SCC(=O)Nc2cccnc2Cl)nc2ccccc2c1=O (centres undefined)
→ 1.1 | -23.5 | 3.7 | -5.2 | i
> CC[C@H](C)[C@@H](CO)NC(=O)[C@H]1O[C@@H](n2ccc(N)nc2=O)[C@H](O)[C@@H]1O
→ -0.8 | 4.9 | -6.2 | 3.1 | i

Later entries
Fields: MLL AF4-AF9 inh | rRNA inh HTS OD600 | rRNA inh HTS RFP | rRNA inh HTS | FGF22 binding
> CSc1ccc(Cn2c(C)c(C(=O)NCc3ccco3)sc2=O)cc1
→ -0.1 | -0.7 | -8.4 | -0.8 | i
> CC(C)C(C(=O)O)N1C(=O)C2C3CCC(C3)C2C1=O (centres undefined)
→ -1.9 | 4.0 | -3.3 | 0.6 | i
> O=C(C[C@@H]1CC[C@@H](NC(=O)c2ccc(F)cc2)[C@H](CO)O1)NCc1ccncn1
→ -2.5 | 5.6 | -2.4 | 0.7 | i
> Cc1noc(C)c1NC(=O)Nc1ccc2c(c1)C(=O)N([C@@H](C)CO)C[C@@H](C)[C@@H](CN(C)C(=O)CCCN(C)C)OCCCC[C@@H](C)O2
→ -1.8 | 1.6 | 0.4 | 2.1 | i
> O=C(C[C@@H]1C=C[C@H](NC(=O)c2cccnc2)[C@@H](CO)O1)NCc1ccc(Cl)c(Cl)c1
→ -0.5 | -3.0 | 1.4 | 0.3 | i
> C[C@@H]1CCCCO[C@H](CN(C)C(=O)Nc2ccc(F)cc2)[C@H](C)CN([C@@H](C)CO)C(=O)c2cc(NC(=O)Nc3cccc4ccccc34)ccc2O1
→ -1.3 | 8.3 | -0.5 | -1.0 | i
> COc1ccc([C@H]2CN(Cc3ccccc3)C(=O)[C@@H]2CC(=O)Nc2ccccc2)cc1
→ -2.5 | -12.2 | 3.0 | -4.0 | i
> Nc1nc(N)c2cc(Sc3ccc(Cl)cc3)ccc2n1
→ 0.6 | -81.8 | -18.9 | -52.9 | i
> C[C@@H]1CN([C@@H](C)CO)C(=O)c2cccc(NC(=O)Nc3ccc(C(F)(F)F)cc3)c2O[C@@H]1CN(C)S(=O)(=O)c1ccc(F)cc1
→ 0.7 | 3.4 | -2.1 | 3.6 | i
> CN(C)C(=O)c1ccc(-c2ccc3c(c2)[C@H]2[C@H](CCN2C(=O)C2CCCCC2)[C@H](CO)N3C)cc1
→ 5.0 | -2.1 | 1.0 | -3.9 | i
> C[C@@H]1CN([C@@H](C)CO)C(=O)c2cc(NC(=O)Nc3ccc4c(c3)OCO4)ccc2O[C@H]1CN(C)Cc1ccc(-c2ccccc2)cc1
→ 5.1 | -3.9 | 4.4 | -6.1 | i
> C[C@H](CO)N1C[C@H](C)[C@H](CN(C)S(C)(=O)=O)Oc2ncc(Br)cc2C1=O
→ -1.3 | 6.7 | -1.0 | 2.4 | i
> C[C@@H]1CN([C@@H](C)CO)S(=O)(=O)c2ccc(-c3ccccc3)cc2O[C@@H]1CN(C)S(=O)(=O)c1ccccc1F
→ 0.1 | -5.6 | -2.5 | -3.7 | i
> C[C@H](CO)N1C[C@H](C)[C@H](CN(C)S(=O)(=O)c2ccc(Cl)cc2)OCCCC[C@H](C)Oc2ccc(NC(=O)Nc3ccc4c(c3)OCO4)cc2C1=O
→ -1.2 | 9.9 | -4.1 | 2.7 | i
> CCCC#Cc1ccc([C@@H]2[C@H](C#N)N(C(=O)C3CCCC3)[C@H]2CO)cc1
→ -1.0 | -0.9 | -0.4 | 0.5 | i
> COc1cccc(-c2cnc3c(c2)C(=O)N([C@H](C)CO)C[C@H](C)[C@@H](CN(C)Cc2cccnc2)O3)c1
→ 0.1 | -12.4 | 0.2 | -2.9 | i
> C[C@@H]1CN([C@H](C)CO)C(=O)c2cc(/C=C/c3ccccc3)cnc2O[C@H]1CN(C)S(=O)(=O)c1cccs1
→ -1.2 | 2.4 | 3.1 | -1.9 | i
> C[C@@H]1CN([C@H](C)CO)C(=O)c2cc(NS(=O)(=O)c3cn(C)cn3)ccc2O[C@@H](C)CCCCO[C@@H]1CN(C)Cc1ccncc1
→ -1.8 | 1.5 | -1.7 | -2.4 | i
> O=C(NC1CCCCC1)N1CC(=O)N2[C@H](CO)[C@H](c3ccc(-c4cccc(F)c4)cc3)[C@H]2C1
→ -3.0 | -23.9 | 23.1 | -4.7 | +
> CCc1nc2c(OCc3ccc(F)c(F)c3)cccn2c1N(C)C(=O)c1ccco1
→ -0.3 | -14.4 | 13.1 | -3.3 | i
> C[C@H]1CN([C@@H](C)CO)C(=O)Cc2cc(NS(=O)(=O)c3cccs3)ccc2O[C@@H]1CN(C)Cc1ccc(C(F)(F)F)cc1
→ 1.1 | -9.3 | 2.8 | -7.6 | i
> CCCNC(=O)Nc1ccc2c(c1)OC[C@H](C)N(C(=O)C1CCC1)C[C@@H](C)[C@H](OC)CN(C)C2=O
→ 0.2 | 2.0 | 0.0 | 1.7 | i
> C[C@@H]1CCCCO[C@@H](CN(C)C)[C@H](C)CN([C@H](C)CO)C(=O)c2cc(NS(=O)(=O)c3cn(C)cn3)ccc2O1
→ -1.6 | 4.4 | 0.3 | 1.3 | i
> Cc1ccc(-c2nc3ccc(Br)cn3c2Cc2ccccc2C(F)(F)F)cc1
→ -2.7 | -1.9 | 10.2 | 4.4 | i
> C[C@@H]1CN([C@@H](C)CO)C(=O)c2cccc(NS(=O)(=O)c3ccc(Cl)cc3)c2O[C@@H]1CN(C)S(=O)(=O)c1ccccc1
→ 0.9 | -3.2 | 3.5 | -1.8 | i
> O=C(CC[C@H]1O[C@@H](n2cnc3c(NC(=O)c4ccccc4)ncnc32)[C@H](O)[C@@H]1O)NCC(c1ccccc1)c1ccccc1
→ 1.2 | -12.6 | -1.4 | -7.6 | i
> CO[C@@H]1CN(C)C(=O)c2ccc(NC(=O)C3CC3)cc2OC[C@H](C)N(C(=O)c2ccccc2)C[C@H]1C
→ -2.0 | 3.2 | -1.1 | -1.2 | i
> Cc1noc(C)c1NC(=O)N(C)C[C@@H]1Oc2ccc(NC(=O)c3ccncc3)cc2C(=O)N([C@@H](C)CO)C[C@H]1C
→ -1.8 | 4.2 | 1.2 | 4.1 | i
> C[C@@H]1CN([C@H](C)CO)C(=O)CCCn2nncc2CO[C@H]1CN(C)C(=O)Nc1ccc(C(F)(F)F)cc1
→ -13.5 | -65.0 | -0.8 | -54.4 | i
> CCCC(=O)Nc1ccc2c(c1)OC[C@@H](C)N(Cc1ccc(F)cc1)C[C@@H](C)[C@@H](OC)CN(C)C2=O
→ 1.1 | -2.3 | 0.7 | -2.4 | i
> C[C@@H]1CN([C@@H](C)CO)S(=O)(=O)c2ccc(-c3ccccc3)cc2O[C@H]1CN(C)Cc1ccccc1C(=O)O
→ 1.3 | -16.8 | -2.6 | -9.9 | i
> Cc1ccccc1S(=O)(=O)NCC[C@@H]1CC[C@@H](NC(=O)C2CCC2)[C@@H](CO)O1
→ 2.8 | -2.5 | -2.8 | -2.7 | i

Random excerpt: two records from the list, in no set order.
Fields: MLL AF4-AF9 inh | rRNA inh HTS OD600 | rRNA inh HTS RFP | rRNA inh HTS | FGF22 binding
> C[C@H](CO)N1C[C@H](C)[C@H](CN(C)S(C)(=O)=O)Oc2ncc(Br)cc2C1=O
→ -1.3 | 6.7 | -1.0 | 2.4 | i
> Nc1nc(N)c2cc(Sc3ccc(Cl)cc3)ccc2n1
→ 0.6 | -81.8 | -18.9 | -52.9 | i

High-throughput results from PubChem BioAssay.
